# Anthrax LT inh – inhibitors of anthrax lethal toxin internalization | Cells, anthrax lethal toxin internalization, FRET ratio (460/530) | Potency, µM (highest dose often 40 µM), for inactives: at the highest dose activity change, negative = inhibition, hits mostly inhibitors | actives 0.67% (n = 70,000); active = well fitted falling ratio curve with the 530 nm signal flat; inconclusive = other ratio curves, or a change in one channel alone; inactive = flat curves in the ratio and both channels; the % refers to the ratio; further: on the % scale 0 is the no-effect control and ±100 the full control effect; nearly all actives have a fitted effect of over 50% in size; tested in ME-180 cells; beta-lactamase reporter
# Prx2 Sm inh – blocks S. mansoni peroxiredoxin 2 enzymatic activity. S. mansoni Prx2 activity coupled to TGR/GSH (TGR is thioredoxin glutathione reductase), NADPH fluorescence loss, qHTS; some inactives read as strong as hits. Potency, µM. actives 0.07% (n = 65,000). AID 448; active means full or partial inhibition curve with a strong effect at the top dose; inconclusive means weaker partial or single-point curve; inactive means no accepted curve; further: series up to 57 µM; many of its hits are not listed in these tables
#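 qHTS, coupled TGR/Prx2 format; 15 min compound preincubation at RT; reaction started with H2O2 (2.5 mM aliquot); kinetic NADPH fluorescence decrease, ex 365/em 450 nm.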
# Active calls of the source: *; ? = inconclusive; . = not tested or not shown; [ ] = another dose, or the depositor's remark. Potency means the concentration at half of the fitted maximal effect.
# Below each compound: Anthrax LT inh	Prx2 Sm inh
CC1=CC(=O)C2=C(C)CC(O)C3C(C)C(=O)OC3C12 (centres undefined)
→ -23%	.
COCCNC(=O)C(c1ccc(C)o1)N(Cc1ccc(OC)cc1)C(=O)Cn1nnc2ccccc21 (centres undefined)
→ 18%	>57
COc1ncc2nc(-c3ccc(Cl)cc3)c(=O)n(-c3ccccc3)c2n1
→ ?	>57
Cc1ccccc1C(=O)NCCN=C1NS(=O)(=O)c2ccccc21
→ 7%	>57
CCCN1CCN(C(=O)Cn2ncc3ccccc32)CC1
→ 2%	>57
CC(C)Oc1ccc(CSc2nnc3n(C)c(=O)c4c5c(sc4n23)CCCC5)cc1
→ -4%	>57
CCOC(=O)c1[nH]c(C)c(/C(O)=C2\C(=O)C(=O)N(CCCN(C)C)C2c2cccnc2)c1C (centres undefined)
→ -10%	>57
CC(=O)Oc1cc(OC(C)=O)c2c(C)cc(=O)oc2c1
→ ?	.
CC(=O)N1[C@H](C)C=C[C@]1(Cc1ccccc1)C(=O)NCc1cc(F)cc(C(F)(F)F)c1
→ ?	.
CCC(c1nnc(SCC(=O)Nc2ccc(C(=O)Nc3ccccc3OC)cc2)o1)N(C)C (centres undefined)
→ 2%	>57
COCCn1c(=O)c2c(nc3n2CCN3c2ccc(C)cc2)n(C)c1=O
→ ?	>57
CN1CCN(S(=O)(=O)c2ccc(NC(=O)Cc3cccs3)cc2)CC1
→ -6%	>57
CC(C)OCCCNC(=O)c1cc2c(=O)n(C)c3ccccc3c2n1C
→ 5%	>57
O=C1C2=CC[C@H]3C(=O)N(Cc4ccc5c(c4)OCO5)C(=O)[C@@H]3[C@@H]2[C@H](O)[C@@H]2O[C@H]12
→ ?	.
CC1CCN(C(=O)C(NS(=O)(=O)c2cccc3nsnc23)c2ccccc2)CC1 (centres undefined)
→ -4%	>57
COC(=O)c1cccc(Oc2nc3c(c(=O)n(C)c(=O)n3C)n2C(C)C)c1
→ -2%	>57
O=C1CSC2(CCCCC2)N1CCO
→ 0%	>57
COC(=O)CN(c1ccc(OC)cc1)S(=O)(=O)c1c(C)noc1C
→ -9%	>57
COC(=O)c1ccc(NC2=CC(=O)CC(C)(C)C2)cc1
→ ?	>57
Cc1ccc(NC(=O)c2cccc(N3C(=O)CCC3=O)c2)nc1
→ 8%	>57
CCn1c(COc2cccc3cccnc23)nnc1SCC(=O)O
→ -6%	>57
CCOC(=O)NC(=O)CSc1nnnn1-c1ccc(C)cc1
→ 4%	>57
COc1ccc(-c2cc(C(=O)N3CCOCC3)no2)cc1OC
→ ?	>57
COC(=O)c1sccc1NC(=O)Cn1cnc2c1c(=O)n(C)c(=O)n2C
→ ?	>57
O=C1c2ccccc2C(Nc2ccc(S(=O)(=O)N3CCCCC3)cc2)N1c1ccccn1 (centres undefined)
→ ?	>57
CCN(CC)S(=O)(=O)c1ccc(NC2CCCc3ccccc32)nc1 (centres undefined)
→ -7%	>57
COc1ccc(-c2cc(C(=O)Nc3ccccc3SC)no2)cc1OC
→ ?	>57
Cn1c(Cn2c(=O)sc3ccccc32)nnc1SCC(=O)N1CCc2ccccc21
→ -4%	>57
CCC(C)[C@H](NC(=O)Nc1ccc(C(C)=O)cc1)C(=O)OC (some centres undefined)
→ 4%	>57
COC(=O)[C@@H]1CC[C@H](C)[C@@H](c2ccc(C)cc2)N1C(=O)c1ccc(/C=N\O[C@@H](C)c2cn([C@H]3COC[C@H]3O)nn2)cc1
→ -4%[8 µM]	.

# Four compounds from above, ordered by molar mass, smallest number first:
# Below each compound: Anthrax LT inh	Prx2 Sm inh
O=C1CSC2(CCCCC2)N1CCO
→ 0%	>57
CCCN1CCN(C(=O)Cn2ncc3ccccc32)CC1
→ 2%	>57
CCOC(=O)NC(=O)CSc1nnnn1-c1ccc(C)cc1
→ 4%	>57
COC(=O)CN(c1ccc(OC)cc1)S(=O)(=O)c1c(C)noc1C
→ -9%	>57

# Nothing new here: an excerpt of the list.
# Below each compound: Anthrax LT inh	Prx2 Sm inh
CC1=CC(=O)C2=C(C)CC(O)C3C(C)C(=O)OC3C12 (centres undefined)
→ -23%	.
COCCNC(=O)C(c1ccc(C)o1)N(Cc1ccc(OC)cc1)C(=O)Cn1nnc2ccccc21 (centres undefined)
→ 18%	>57
COc1ncc2nc(-c3ccc(Cl)cc3)c(=O)n(-c3ccccc3)c2n1
→ ?	>57
Cc1ccccc1C(=O)NCCN=C1NS(=O)(=O)c2ccccc21
→ 7%	>57

# Part of the list above, set out differently:
> COc1ccc(-c2cc(C(=O)Nc3ccccc3SC)no2)cc1OC
  Anthrax LT inh: ?
  Prx2 Sm inh: >57

> Cn1c(Cn2c(=O)sc3ccccc32)nnc1SCC(=O)N1CCc2ccccc21
  Anthrax LT inh: -4%
  Prx2 Sm inh: >57

# New compounds follow:
# Below each compound: Anthrax LT inh	Prx2 Sm inh
O=C(CCCCCn1c(=S)[nH]c2cc3c(cc2c1=O)OCO3)N1CCN(Cc2ccccc2)CC1
→ ?	>57
Fc1cccc(Cl)c1Cn1nnc2c(N3CCC4(CC3)OCCO4)ncnc21
→ -19%	>57
O=C(CNC1CCCCCC1)Nc1ccc(S(=O)(=O)NC2CC2)cc1
→ 2%	>57
Cc1ccccc1OCc1nc(-c2ccc(NC(=O)c3ccco3)cc2)no1
→ ?	>57
CCCC(C)n1[nH]c(=O)c2c1NC(=O)CSC2c1ccc(OC)c(OC)c1 (centres undefined)
→ 7%	>57
Cc1cc(C)c(C)c(OCC(=O)NCCN(C)C)c1
→ -15%	>57
Cc1cccc(-c2noc(CCC(=O)NCc3ccccc3)n2)c1
→ -11%	>57
Cc1occc1-c1nc(-c2ccncc2)no1
→ -4%	>57
Nc1nc2c3ccccc3nc(Cc3ccccc3)n2n1
→ -9%	>57
Cc1cc(C(=O)Nc2ccc(N3CCOCC3)cc2)c2ccccc2n1
→ -3%	>57
O=C(O)c1nc2nc(Cl)c(Cl)nc2[nH]1
→ 3%[8 µM]	>57
O=C(NC1CCCCC1)C(c1cccs1)N(Cc1cccs1)C(=O)c1ccco1 (centres undefined)
→ -13%	>57
COc1ccc(Cn2nnnc2CN(Cc2cc3ccc(C)cc3[nH]c2=O)C2CCCC2)cc1
→ -5%	>57
O=C(C1CCN(S(=O)(=O)Cc2ccccc2)CC1)N1CCN(c2ncccn2)CC1
→ -1%	>57
O=C(Nc1ccccc1)N(CCN1CCOCC1)Cc1cccc(Cl)c1
→ 6%	>57
O=C(CN1C(=O)C2(OCCO2)c2ccccc21)c1ccc(F)cc1
→ ?	>57
Cc1nn(CC(=O)NCC2CCCO2)c(=O)c2ccccc12 (centres undefined)
→ ?	>57
Cc1ccc(-c2noc(C3CCN(S(C)(=O)=O)CC3)n2)o1
→ -10%	>57
CCCOc1ccc(C2c3c(oc4ccccc4c3=O)C(=O)N2CCN(CC)CC)cc1OC (centres undefined)
→ ?	>57
Cc1ccc(N2CCN(c3cc(C)nc4c5c(C)cc(C)nc5nn34)CC2)cc1
→ 12%	>57
CC1CCN(CCCn2c(=S)[nH]c3ccc(N4CCOCC4)cc3c2=O)CC1
→ .	>57
O=C(NCc1ccco1)C(c1cccs1)N(C(=O)C1COc2ccccc2O1)c1cccc(O)c1 (centres undefined)
→ -12%	>57
C[C@@H](C(=O)O)c1ccc(N2Cc3ccccc3C2=O)cc1
→ 6%[3.58 µM]	>57
CCCn1c(-c2ccc(F)cc2)nc2c(NCCCN(CC)CC)nc(C)nc21
→ -8%	.
C[C@H](NC(=O)OC(C)(C)C)c1nnc(SCC(N)=O)o1
→ 7%	>57
CCC(C)(C)n1nnnc1C(C(C)C)N1CCSCC1 (centres undefined)
→ -5%	>57
CC1=C(C(=O)OC(C)C)C(C2CC=CCC2)NC(=O)N1 (centres undefined)
→ 13%	>57
Cn1cnnc1SCc1ccc(C#N)cc1Cl
→ -15%	>57
CC1CCN(C(=O)C2c3ccccc3C(=O)N3CCc4ccccc4C23)CC1 (centres undefined)
→ 6%	>57
O=C(c1cccc(F)c1)N1CCC2(CCCN(c3ccccc3)C2)CC1
→ 4%	>57
CCOC(=O)c1ccc(N2C(=O)c3n[nH]c(C)c3C2c2ccccn2)cc1 (centres undefined)
→ -13%	>57
COc1ccc(C(C)=O)cc1COC(=O)Cc1n[nH]c(=O)c2ccccc12
→ -8%	>57
OCc1ccccc1CNCc1ccccc1
→ -6%	>57
O=C(OCC(=O)N1CCN(c2ccccc2)CC1)c1ccc2ncsc2c1
→ -15%	>57
Cn1c(=O)c2c(ncn2CC(=O)Nc2ccccc2Sc2ccccc2)n(C)c1=O
→ .	>57
Cc1cccc2[nH]c3c(=O)n(CCN4CCNCC4)cnc3c12
→ -7%	>57
Cc1cccnc1-n1c(CN2C(=O)c3ccccc3C2=O)nc2ccccc2c1=O
→ -5%	>57
CCOc1cc(C(=O)NC(C)COC)cc(OCC)c1OCC (centres undefined)
→ -11%	.
CCOC(=O)C1=C(C)NC(=O)NC1c1ccc(N(C)C)cc1 (centres undefined)
→ 10%	>57
COC(=O)N1CCC2(CCN(Cc3nccs3)CC2)CC1
→ 1%	>57
COc1cccc(NC(=O)CC2(CC(=O)O)CCCC2)c1
→ ?	>57
COC(=O)[C@@]1(Cc2ccccc2)[C@H]2c3cc(C(=O)N4CCCC4)n(Cc4ccccn4)c3C[C@H]2CN1C(=O)c1ccccc1
→ -10%	>57
CCOC(=O)C1[C@H]2C(=O)N(C(C)c3ccc(OC)cc3)C[C@]23C=C[C@H]1O3 (some centres undefined)
→ ?	>57
CCOC(=O)c1[nH]c(COC(=O)CCCOc2ccccc2)c(C(=O)OCC)c1C
→ ?	>57
O=C(Nc1cnn(Cc2ccc(F)cc2)c1)c1cnccn1
→ -1%	>57
COc1ccc(NC(=O)N(C2CCCCC2)C(C)c2cccnc2)c(OC)c1 (centres undefined)
→ 13%	>57
Cc1ccc(S(=O)(=O)N2CCN(S(=O)(=O)c3ccc4c(c3)OCCO4)CC2)cc1
→ 9%	>57
COc1cccc(N2C(=O)N(c3ccccc3Cl)C3CS(=O)(=O)CC32)c1 (centres undefined)
→ ?	>57
O=C1C2CCCN2C(c2ccccc2)N1c1ccc(F)cc1 (centres undefined)
→ -3%	>57
Cc1[nH]c2ccccc2c(=O)c1CN1CCCCC1
→ -8%	>57
O=C(c1ccc(Cn2c(=O)[nH]c3ccccc3c2=O)cc1)N1CCN(c2ccccn2)CC1
→ ?	>57
O=C(COC(=O)c1ccco1)Nc1nc2ccccc2s1
→ -12%	>57
CC(C(=O)N1CCCc2c1c(=O)oc1ccc(O)cc21)N1CCc2ccccc2C1 (centres undefined)
→ -22%	>57
CCC(C)c1ccc(NC(=O)c2cccnc2)cc1 (centres undefined)
→ -9%	>57
CCC(C)c1c(O)nc(SCc2ccccc2)[nH]c1=O (centres undefined)
→ -3%	>57
O=C(Nc1cccc(F)c1)N1CC[C@@]2(CCCN(C(=O)c3cnccn3)C2)C1
→ 8%	>57
O=C(Nc1nnc(CC2=CCCCC2)s1)c1cccs1
→ 19%	>57
O=C(O)CCCC(=O)NCCc1cccc(Cl)c1
→ 0%	>57
Cc1ccc(NC(=O)N2C(=O)C3(OCCO3)c3ccccc32)cc1
→ -10%	>57
CC(NS(=O)(=O)c1ccc(OCC(=O)N2CCOCC2)c(Cl)c1)c1ccccc1 (centres undefined)
→ 18%	>57

# (further entries)
# Below each compound: Anthrax LT inh	Prx2 Sm inh
Cc1cc(C)n(-c2nc(NCC3CCCO3)c3c4c(sc3n2)COC(C)(C)C4)n1 (centres undefined)
→ 12%	.
O=C(NC1CCCCC1)C1CCCN1C(=O)NCc1ccccc1 (centres undefined)
→ 3%	>57
C[C@@H]1C[C@H](OC(=O)c2ccccc2O)CC(C)(C)C1
→ ?	>57
O=C(O)C[C@@H](C(=O)O)c1ccccc1[N+](=O)[O-]
→ ?	>57
COC(=O)c1[nH]c2ccccc2c1NS(=O)(=O)c1ccc(OC)cc1OC
→ -4%	>57
Cc1cc(NCc2ccco2)nc2cc(O)ccc12
→ 1%	>57
CC1CCN(CC(=O)Nc2ccccc2C#N)CC1
→ 17%	>57
CCOC(=O)C(C)Sc1nnc(-c2ccccc2O)n1-c1ccc(C)cc1 (centres undefined)
→ -14%	>57
CCOC(=O)C1CCN(c2c(N3CCN(c4ccccc4OC)CC3)c(=O)c2=O)CC1
→ -6%	>57
N#Cc1cc2c(nc1SCC(=O)Nc1nccs1)CCCCC2
→ ?	>57
O=C(Cn1c(=O)n(CCC(=O)N2CCc3ccccc3C2)c(=O)c2ccccc21)NCC1CCCO1 (centres undefined)
→ 0%	>57
CS(=O)(=O)N1CCC(C(=O)Nc2ccccc2Sc2ccccc2)CC1
→ -11%	>57
Cn1c(=O)n(Cc2ccco2)c(=N)c2c3c(sc21)CCC3
→ 8%	>57
COc1ccc(-c2ccc(-c3noc(-c4ccccc4)n3)c(OC)n2)cc1
→ 1%	>57
Cc1ccccc1Cn1c(=N)n(CC(=O)c2ccco2)c2ccccc21
→ 14%	>57
CCCc1nc(SCC(=O)Nc2cc(C)on2)c2ccccc2n1
→ -2%	>57
O=C(O)[C@H]1[C@H](C(=O)O)[C@H](C(=O)O)C[C@@H]1C(=O)O
→ ?	>57
O=C(Nc1cccnc1)c1c(O)c2c(n(Cc3ccccc3)c1=O)CCCC2
→ ?	>57
COCC(=O)N(Cc1ccco1)c1nnc(C2CCOC2)s1 (centres undefined)
→ -1%	>57
COc1ccc(OCc2nnc3n2N=C(c2ccc(Br)cc2)CS3)cc1
→ ?	>57
COc1ccccc1OCc1nnc(SCC(=O)N2CCCCC2)n1-c1ccccc1
→ -5%	>57

# A portion of the library. The share of hits here may be higher or lower than overall.
